# Vaccinia Venus: qHTS for Stage-Specific Inhibitors of Vaccinia Orthopoxvirus: Venus Reporter Primary qHTS; Vaccinia virus Venus reporter expression, fluorescence; hit rate 0.46% among 330,000; AID 720580, 2013; Potency, µM (doses to about 36.5 µM), inactives show at the highest dose activity change, negative = inhibition, hits mostly inhibitors; active means well fitted inhibition curve with a large enough effect; inconclusive means small, poorly fitted or top-dose-only effect; inactive means no such curve, though single readings can be large or run the other way; tested in A549 cells; note: nearly all actives have a fitted effect of over 30% in size; inactives centre near -10
# VACV mCherry inh: qHTS for Stage-Specific Inhibitors of Vaccinia Orthopoxvirus: mCherry Reporter Primary qHTS; Potency, µM (titrated, usually from 36.5 µM), for the others: at the top dose activity change, negative = inhibition, most hits filed as inhibitors; hit rate 0.63% among 310,000; AID 720579, 2013; Vaccinia virus mCherry reporter infection, fluorescence; about a quarter of the inactives have no number; active = well fitted inhibition curve with a large enough effect; inconclusive = small, poorly fitted or top-dose-only effect; inactive = no such curve, though single readings can be large or run the other way; tested in A549 cells; note: nearly all actives have a fitted effect of over 35% in size; inactives centre near -10
# Starred values were filed as active, the others as inactive; i = inactive; ? = inconclusive; · = no result given; [ ] = remark or other dose. % is set by controls: 0 for no effect and ±100 for the full control effect; potency is the fitted concentration of half-maximal effect. No enrichment for hits. Share with any hit: about 0.87%.
# Each structure is followed by: Vaccinia Venus, VACV mCherry inh
- COCCNC(=O)c1nn(-c2cc(OC)cc(OC)c2)c(=O)c2ccccc12
 : -9%, ·
- NC(=O)c1cccc(-c2coc3c(C(=O)NCc4cccnc4)cccc23)c1
 : -11%, i
- O=C(Oc1ccc2c(=O)c(Oc3ccc4ccccc4c3)coc2c1)c1ccco1
 : 4%, 5%
- Cc1nn(-c2ccccc2)c(-n2cccc2)c1C(=O)O
 : -1%, -13%
- CC(C)(C)c1ccc(C(=O)NCCC(=O)N2CCN(c3ncccn3)CC2)cc1
 : -15%, ·
- Cc1cccc(Cn2c(SCCN3CCCCC3)nc3c2c(=O)[nH]c(=O)n3C)c1
 : ?, -14%
- CCN1C(=O)[C@H]2[C@@H](c3ccc(OC)cc3)N[C@]3(CCCN(Cc4ccco4)C3=O)[C@H]2C1=O
 : -4%, -29%
- CN(NC(=O)/C=C/C(=O)O)c1ncc(C(F)(F)F)cc1Cl
 : -10%, i
- CC=C(CC)C1(CCC)C(=O)NC(=S)NC1=O
 : 4%, i
- CC(=O)N(c1ccccc1C)C1CCCC1
 : -6%, -9%
- Cc1ccc(OCCCCn2ccnc2C)c(C)c1
 : -12%, -28%
- O=C(Cc1ccc(Br)cc1)N1CCN(C(=O)c2ccco2)CC1
 : -3%, -8%
- CCN(CC)CCCNC(=O)c1ccc2nc(N3CCCCC3)sc2c1
 : 0%, -7%
- CC1(C)CC(=O)C2=C(C1)c1c(ccc3ccccc13)NC2c1ccc(C(=O)O)cc1 (stereo unspecified)
 : -7%, -4%
- CCCCn1ccc(=O)c2c(C(F)(F)F)nccc21
 : -16%, ·
- Cc1nc(-c2ccc(F)cc2)sc1CCNC(=O)C(=O)Nc1ccc2c(c1)OCCO2
 : -12%, -21%
- COC(=O)COc1ccc(NC(=O)c2ccco2)cc1
 : -8%, i
- O=S(=O)(Nc1cccc(-c2cn3c(n2)SCC3)c1)c1ccc(F)cc1F
 : -22%, ?
- COc1ccc(-c2cc(=O)[nH]c(NCc3ccccc3)n2)cc1
 : -22%, ?
- CCOc1ccc2[nH]c3c(N4CCC5(CC4)OCCO5)ncnc3c2c1
 : ?, ?
- O=C(Nc1ccc2c(c1)OCO2)C1Cc2c(-c3cccnc3)ccnc2O1 (stereo unspecified)
 : -2%, 27%
- C=CCNC(=S)N/N=C/c1ccccc1OCCOc1ccccc1
 : -5%, -1%
- CCOc1ccc(Nc2cc(=O)n(C)c(=O)n2C)cc1
 : 0%, 0%
- Cc1ccc(S(=O)(=O)NC2CCCc3ccccc32)cc1C (stereo unspecified)
 : -18%, i
- CC(C)C(OC(=O)c1nsc(Cl)c1Cl)C(=O)NCc1ccc2c(c1)OCO2 (stereo unspecified)
 : -17%, -2%
- CCOC(=O)[C@]12CCC=C1N(CCC1=CCCCC1)C(=O)[C@H](CC(=O)NCCCOC)C2
 : -3%, -4%
- COc1ccc(C(=O)N2CCC(C(=O)c3c(C)cc(C)cc3C)CC2)cc1
 : -9%[7.34 µM], 0%[7.34 µM]
- COc1cccc(N2CCN(C3=NS(=O)(=O)C(c4ccc(C)cc4)=C3C)CC2)c1
 : -16%, -7%
- c1ccc(CN2CCN(c3nc4ccccc4c4ccccc34)CC2)cc1
 : -9%, ·
- Cc1cccc(C)c1OCCOC(=O)c1ccc(S(=O)(=O)N2CCCC2)cc1
 : -5%, i

# Looked up by compound from the entries so far, 3 records:
# Each structure is followed by: Vaccinia Venus, VACV mCherry inh
- CCN(CC)CCCNC(=O)c1ccc2nc(N3CCCCC3)sc2c1
 : 0%, -7%
- CC(=O)N(c1ccccc1C)C1CCCC1
 : -6%, -9%
- c1ccc(CN2CCN(c3nc4ccccc4c4ccccc34)CC2)cc1
 : -9%, ·

# The list goes on.
# Each structure is followed by: Vaccinia Venus, VACV mCherry inh
- CCOCCOc1nc2c(c(=O)n(C)c(=O)n2C)n1CCc1ccccc1
 : -4%, -10%
- CCN(CC)C(=O)c1[nH]cnc1C(=O)Nc1ccccc1F
 : -8%, 4%
- CCNC(=O)C1(C)CCN(Cc2csc(-c3ccccc3)n2)C1 (stereo unspecified)
 : -4%, i
- COc1ccc2[nH]c(C(=O)NCc3ccccc3)c(C)c2c1
 : -17%, -9%
- CCOC(=O)CCN=Cc1c(O)n(-c2ccc(Br)cc2)c(=O)[nH]c1=O
 : -6%, -8%
- OC1(c2cn(Cc3ccccc3)nn2)CCCCC1
 : -5%, ·
- C=CCNC(=O)c1ccc(-n2cccc2)cc1
 : -8%, -9%
- N/C(=N\OC(=O)CCC1CCCCC1)c1ccc([N+](=O)[O-])cc1
 : -3%, -18%
- COC(=O)c1ccc(NS(=O)(=O)c2ccc3[nH]c4c(c3c2)CCCCC4)cc1
 : -15%, -9%
- COCc1cc(C)nc(SCc2ccc(Cl)cc2)c1C#N
 : 6%, -21%
- CC1(C(=O)NS(=O)(=O)c2ccccc2Cl)CCN1C(=O)Cc1cc(F)ccc1F (stereo unspecified)
 : -8%, -5%
- CC1=Nc2cc(C(=O)O)ccc2Sc2c(C)ccc(C)c21
 : -16%, -10%
- O=C(CCSc1ccccc1)Nc1nnc(-c2cccs2)o1
 : -11%, i
- CNC(=S)N/N=C/c1c2ccccc2c(Cl)c2ccccc12
 : -4%, -5%
- O=C1NC(=O)N(Cc2ccccc2)CC1Br (stereo unspecified)
 : -13%, i
- N#C/C(=C(/O)COC(=O)CSc1ccc(Cl)cc1)c1nc2ccccc2[nH]1
 : -20%, -9%
- Cc1ccc(C)c(N2CCN(C(=O)C3CCN(Cc4nc(-c5cccc(Cl)c5)oc4C)CC3)CC2)c1
 : ?, ?
- CCCN(CCC)S(=O)(=O)c1cccc(-c2csc(C)n2)c1
 : 7%, i
- COCCn1c(CNC(=O)c2ccc(C)cc2)nc2cccnc21
 : -2%, -12%
- CCOC(=O)c1nnn(CC(=O)Nc2cccc(F)c2)c1C(=O)OCC
 : -15%, -12%
- COc1ccc(NC2CCCN(C(=O)CSc3ccccc3)C2)cc1OC (stereo unspecified)
 : -12%, -17%
- Cc1ccc(NC(=O)CN2CCN(C(=O)C3CCCO3)CC2)c(C)c1 (stereo unspecified)
 : 1%, -10%
- CCN1CCn2c1nc(N1CCCCC1)nc2=O
 : -9%, -11%
- COc1ccccc1CN1CCN(C(CC(C)C)c2nnnn2Cc2cccs2)CC1 (stereo unspecified)
 : ?, -8%
- O=C1Nc2ccccc2N=C(c2ccc3c(c2)OCO3)C1N(C(=O)c1ccnc2ccccc12)c1ccccc1 (stereo unspecified)
 : 2%, i
- Nc1cccnc1Oc1ccccc1F
 : -1%, -3%
- CCOc1ccc(NC(=O)C2CCCN(c3nnc(C)c4c(C)n(-c5ccccc5)nc34)C2)cc1 (stereo unspecified)
 : -11%, -13%
- CN1CCCC1=Nc1c2c(nc3ccccc13)N(C)CC2
 : -3%, i
- O=C(CCCCCN1C(=O)c2ccccc2C1=O)Nc1cccc(O)c1
 : -16%, -6%
- CCNc1nc(N)nc(-c2cc(Cl)ccc2O)n1
 : 10µM*, 10µM*

# Next structures follow:
# Each structure is followed by: Vaccinia Venus, VACV mCherry inh
- Cc1cc(OCC(=O)Nc2ccncc2)ccc1[N+](=O)[O-]
 : -20%, -25%
- COc1ccc(-n2nnnc2/C(=C/N(C)C)C(=O)c2ccccc2)cc1
 : -3%, -5%
- COc1ccc(Br)cc1CNCc1c(C(=O)O)c(C)n(Cc2ccccc2C)c1C
 : 2%, -2%
- CCOC(=O)c1c(C)nc2ccccc2c1-c1ccccc1
 : -10%, -14%
- O=C(/C=C/c1ccco1)NC(=S)Nc1ccc(N2CCOCC2)c(Cl)c1
 : -28%, ·
- O=C(COC(=O)c1cccc(OC(F)F)c1)Nc1ncccn1
 : -4%, -12%
- COc1ccc(CC(=O)Nc2cc(C)on2)cc1OC
 : -4%, i
- CCOc1ccc(Br)cc1CC(=O)O
 : 1%, ·
- COc1cccc(NC(=S)NCCC(c2ccccc2)c2ccccc2)c1
 : ?, ·
- Cn1c(-c2ccc(F)cc2)cnc1NCc1cc2c(cc1[N+](=O)[O-])OCO2
 : -13%, -6%
- CSc1ccccc1C(=O)Nc1cccc(N(C)S(C)(=O)=O)c1
 : 5%, -3%
- Cc1ccccc1NC(=O)CCCCC(=O)Nc1ccccc1C
 : -7%, -8%
- c1ccc2c(c1)-c1cccc3cccc-2c13
 : -4%, 45%[activator]
- O=C(Nc1cnn(Cc2ccc(Cl)cc2Cl)c1)c1noc2c1CCCC2
 : -17%, i
- c1ccc(-n2cc(CN3CCCC(CN4CCCC4)C3)c(-c3ccc4c(c3)OCO4)n2)cc1 (stereo unspecified)
 : -24%, -21%
- CCCCCn1c(=O)[nH]c2cc(C(=O)NCCN3CCCCC3C)ccc2c1=O (stereo unspecified)
 : -8%, -11%
- Cc1oc(-c2ccccc2F)nc1CS(=O)(=O)CC(=O)NCCN1CCCC1
 : -11%, -8%
- CCC(C)Nc1ncnc2c1cnn2-c1ccc(F)cc1 (stereo unspecified)
 : -8%, 1%
- CCC(C)(C(=O)NC1CCCCC1)N(CC1CCCO1)C(=O)CNC(=O)c1ccccc1 (stereo unspecified)
 : 8%, -4%
- CC1CCCCN1C(=O)Cn1cc(C#N)c2ccccc21 (stereo unspecified)
 : -2%, ·
- COc1cccc(NC(=O)CN(C)C(=O)c2cn(-c3ccccc3)nc2-c2cccs2)c1
 : -11%, -13%
- CCCCn1c(N)c(N(CCOC)C(=O)CC2CCCCC2)c(=O)[nH]c1=O
 : -6%, i
- CC(=O)N1CCN(c2ccc(NC(=O)c3ccc4ccccc4c3)cc2)CC1
 : -1%, -7%
- CC1CCC/C=C/C(=O)c2c(O)cc(O)cc2CC(=O)O1 (stereo unspecified)
 : ?, 7.1µM*
- COc1ccc(C(=O)Cn2c(=O)c(CCC(=O)O)nn3c4ccccc4nc23)cc1OC
 : -18%, -17%
- CCN1CCCC1CNC(=O)CN(C)S(=O)(=O)c1ccc(Cl)cc1 (stereo unspecified)
 : -4%, -20%
- C/C(=N\NC(=O)c1cccc(Br)c1)c1ccccn1
 : ?, ?
- COc1nc(OC)nc(N(C)CCO)n1
 : -15%, ·
- Cc1ccc(NC(=O)C2CC(=O)N(c3ccc4c(c3)OCCO4)C2)cc1S(=O)(=O)N(C)C (stereo unspecified)
 : -24%, -10%
- CN(C)C(=O)CSc1nnc(-c2cccs2)n1-c1ccccc1
 : -14%, i

# New compounds follow
# Each structure is followed by: Vaccinia Venus, VACV mCherry inh
- CC1CCN(c2ccc(NC(=O)c3ccc([N+](=O)[O-])o3)cc2)CC1
 : 10µM*, 11µM*
- O=C(CCOc1ccccc1)N(Cc1cccnc1)c1nc2c(F)cc(F)cc2s1
 : -3%[7.34 µM], -10%[7.34 µM]
- Cc1nonc1-c1csc(N)n1
 : -6%, i
- CCOc1ccc(NC(=O)c2nn(C)c(C(=O)Nc3ccc(OCC)cc3)c2[N+](=O)[O-])cc1
 : -16%, i
- Cc1ccc(-n2ncc3c(NC4CCCC4)ncnc32)cc1
 : -9%, -10%
- Cc1cccc(NS(=O)(=O)c2ccc3c(c2)CCN3C(=O)CCC(=O)O)c1
 : -16%, -17%
- COC(CNS(=O)(=O)c1ccc(Cl)cc1)c1ccccc1 (stereo unspecified)
 : -18%, -25%
- Cc1ccc(C(=O)NNC(=S)Nc2cccc3ccccc23)s1
 : -20%, -17%[1.46 µM]
- CC(NC(=O)c1cc(-c2ccc(Cl)cc2)on1)c1ccccc1 (stereo unspecified)
 : -7%, -15%
- COc1ccc(C)c2sc(N(Cc3cccnc3)C(=O)C3CCCCC3)nc12
 : -10%, -11%
- COc1ccc(C2c3sc(=O)[nH]c3SCC2C(N)=O)cc1 (stereo unspecified)
 : -6%, -13%
- Cc1ccc(S(=O)(=O)NCCNS(=O)(=O)c2ccc(C)cc2)cc1
 : -13%, -22%
- CC(C)c1ccc(NC(=O)C2Cc3c(-c4ccccc4Oc4ccccc4)ccnc3O2)cc1 (stereo unspecified)
 : 16%, 1%
- COc1ccc(S(=O)(=O)N2CCN(CC(=O)c3c(N)n(C)c(=O)n(C)c3=O)CC2)cc1OC
 : -18%, i
- Cc1nnc(SCC(=O)Nc2ccc(Br)cn2)[nH]c1=O
 : -2%, ·
- CCC(C)c1nc2ccsc2c(N2CCOC2=O)c1-c1ccccc1 (stereo unspecified)
 : -16%, -15%
- CCN1C(=O)C(CC(=O)Nc2ccc(OC)cc2)N(Cc2ccco2)C1=S (stereo unspecified)
 : -10%, -12%
- Clc1cc(CSc2ccccc2)nc(-c2ccccc2)n1
 : 0%, -2%
- Cc1cc(N2CCOCC2)nc(N2CCOCC2)c1C#N
 : -11%, i
- CCCOc1ccc(C2C(=O)N(C3CCCCC3)CC(=O)N2CCc2ccccc2)cc1OC (stereo unspecified)
 : -15%, 10%

# Single records (already shown). Order of screens: Vaccinia Venus	VACV mCherry inh
# Entry for `CC1CCN(c2ccc(NC(=O)c3ccc([N+](=O)[O-])o3)cc2)CC1` : 10µM*	11µM*
# Entry for `CC(C)c1ccc(NC(=O)C2Cc3c(-c4ccccc4Oc4ccccc4)ccnc3O2)cc1` (stereo unspecified) : 16%	1%
# Entry for `Cc1ccc(-n2ncc3c(NC4CCCC4)ncnc32)cc1` : -9%	-10%
# Entry for `Cc1ccc(S(=O)(=O)NCCNS(=O)(=O)c2ccc(C)cc2)cc1` : -13%	-22%

# Three entries already listed, arranged by molecular weight, low to high:
# Each structure is followed by: Vaccinia Venus, VACV mCherry inh
- Cc1ccc(C(=O)NNC(=S)Nc2cccc3ccccc23)s1
 : -20%, -17%[1.46 µM]
- O=C(CCOc1ccccc1)N(Cc1cccnc1)c1nc2c(F)cc(F)cc2s1
 : -3%[7.34 µM], -10%[7.34 µM]
- CCCOc1ccc(C2C(=O)N(C3CCCCC3)CC(=O)N2CCc2ccccc2)cc1OC (stereo unspecified)
 : -15%, 10%
